# Assay outcomes: PubChem, National Center for Advancing Translational Sciences (NCATS)
# Rango dissoc inh: prevents RanGTP from dissociating the Rango-importin beta complex; O95149+P62826; Potency, µM (highest dose often 46.1 µM), for inactives: top-dose activity change, negative = inhibition; hit rate 0.071% among 340,000; Biochemical FRET Rango-importin beta, RanGTP-induced dissociation; AID 540253; active means falling FRET ratio curve, often poorly fitted, with flat reads before Ran was added; inconclusive means other falling curves, or compound fluorescence or quenching; inactive means flat or rising ratio curve;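 also: potency is read from the fitted curve at half-maximal effect; % of control where 0% means no effect; nearly all actives have a fitted effect of over 45% in size; -100% = wells without RanGTP and RCC1; the record marks most hits as doubtful in a second field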
#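 Quantitative HTS using a FRET biosensor: 0.1 uM Rango, 0.25 uM importin beta, 0.6 uM Ran, 2 mM GTP, 0.2 uM RCC1 final, PBS with DTT, Tween-20 and BSA. Post-read taken 45 min after Ran addition.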
# Rango complex inh: prevents formation of the Rango-importin beta complex. Q14974. Rango CFP/YFP FRET sensor + importin beta, 45 min. Potency, µM (titrated, usually from 92.2 µM), inactives show at the highest dose inhibition of complex formation. hit rate 0.031% among 340,000. AID 540263; active = rising FRET ratio curve, often small or poorly fitted; inconclusive = mostly compound fluorescence or quenching in the first reads; inactive = flat curves in all reads;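 also: potency is read from the fitted curve at half-maximal effect; 0% = DMSO wells and 100% = buffer wells lacking importin beta; nearly all actives have a fitted effect of over 15% in size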
# Target sequence (Q14974 whole entry, looked up): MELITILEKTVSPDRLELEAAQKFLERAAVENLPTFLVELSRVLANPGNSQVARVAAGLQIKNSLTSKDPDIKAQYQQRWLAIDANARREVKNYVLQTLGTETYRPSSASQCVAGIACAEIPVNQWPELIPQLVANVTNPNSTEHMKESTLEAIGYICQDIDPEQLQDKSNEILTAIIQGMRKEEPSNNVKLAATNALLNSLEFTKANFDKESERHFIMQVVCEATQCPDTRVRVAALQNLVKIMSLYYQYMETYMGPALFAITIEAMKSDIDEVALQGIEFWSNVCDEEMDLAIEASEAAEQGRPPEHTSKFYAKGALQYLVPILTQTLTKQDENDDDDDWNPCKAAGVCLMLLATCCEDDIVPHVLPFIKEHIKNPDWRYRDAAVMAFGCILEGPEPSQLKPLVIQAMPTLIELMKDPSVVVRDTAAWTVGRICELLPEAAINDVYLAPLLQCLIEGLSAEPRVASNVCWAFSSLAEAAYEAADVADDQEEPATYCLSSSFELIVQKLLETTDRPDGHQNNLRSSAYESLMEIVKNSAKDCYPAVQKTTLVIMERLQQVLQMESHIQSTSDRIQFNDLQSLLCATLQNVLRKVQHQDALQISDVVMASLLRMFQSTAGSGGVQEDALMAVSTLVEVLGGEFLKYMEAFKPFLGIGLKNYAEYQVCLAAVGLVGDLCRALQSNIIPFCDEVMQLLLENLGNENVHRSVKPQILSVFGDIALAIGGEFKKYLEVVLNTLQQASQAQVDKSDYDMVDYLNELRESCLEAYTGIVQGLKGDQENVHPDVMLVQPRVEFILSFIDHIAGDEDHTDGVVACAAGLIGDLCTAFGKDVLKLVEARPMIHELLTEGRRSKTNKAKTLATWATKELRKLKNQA
#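 FRET biosensor Rango (snurportin 1 IBB between N-terminal EYFP and C-terminal Cerulean), 50 nM in PBS/1 mM DTT/0.02% Tween-20/0.1% BSA, preincubated 5 min RT with compound; 0.125 microM importin beta added, 45 min RT, CFP/YFP FRET ratio read.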
# miR-21 reporter: raises the signal of a miR-21 reporter | 340,000 tested, under 10 active | Potency, µM (doses to about 38.3 µM), for inactives: at the top dose reporter change, positive = more light | HeLa miR-21 FLuc reporter, luciferase, 48 h | AID 2288; active = well fitted rising curve with a large enough effect; inconclusive = small, poorly fitted or top-dose-only effect; inactive = no such curve, though single readings can be large or run the other way;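 also: % of control where 0% means no effect; miR-21 action dims this reporter so a rising signal means less miR-21 action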
#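 HeLa cells endogenously expressing miR-21, stably carrying CMV-driven firefly luciferase with a downstream miR-21 binding site, 2000 cells/well. Titrations up to approximately 40 uM, 48 hours; luciferase luminescence read.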
# GLA inh pH 4.5: alpha-galactosidase A (human) inhibition, pH 4.5; 230,000 tested, under 10 active; activity change, negative = inhibition, % at 105 µM; AID 1467; purified enzyme, 4-MU-alpha-Gal fluorescence, pH 4.5; P06280; inconclusive = small, poorly fitted or top-dose-only inhibition, or a rising curve; inactive = flat fitted curve, though single readings scatter; no compound was filed as active;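 also: 0% = full activity with enzyme and -100% = basal without enzyme; dose as in the result columns while the protocol names 77 µM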
# * hit, by the source's call; ? = inconclusive; . = not tested or not shown. Some of the compounds tested, so the mix of outcomes need not match the whole.
SMILES,Rango dissoc inh,Rango complex inh,miR-21 reporter,GLA inh pH 4.5
CCn1c(C(=O)N2CCCC(C(=O)NCCCc3ccccc3)C2)cc2sccc21 (centres undefined),-6.8%,4.6%,22.5%,-8.3
Cc1ccc2nc(-c3ccc(NC(=O)COC(=O)c4ccc(=O)[nH]c4)cc3)sc2c1,-6.7%,-2.2%,-7.9%,-0.1
C=CC[C@@H](CC(=O)N[C@@H](CO)Cc1ccccc1)C(=O)N[C@@H](C)COC(=O)[C@@H](CC=C)Cc1ccc(F)cc1,-3.3%,0.2%,.,.
O=C(C[n+]1cc(-c2ccc(F)cc2)n2c1CCC2)N1c2ccccc2Sc2ccccc21,-4.4%,-0.9%,-51.8%,-4.7
Cc1occc1C(=O)NCc1ccco1,0.7%,-0.1%,-3.1%,-2.0
O=C(CCCC(=O)NN=Cc1ccc(Cl)cc1Cl)NN=Cc1ccc(Cl)cc1Cl,3.3%,?,.,.
COc1ccc(-c2csc(Cc3nnc(N4CCOCC4)n3-c3ccccc3)n2)cc1OC,-17.9%,-3.2%,-8.5%,7.3
CN1C(=O)NC(c2ccc(Cl)cc2)C2=C1CC(C)(C)CC2=O (centres undefined),10.4%,-1.3%,4.4%,.
O=C(Cc1c(F)cccc1Cl)Nc1ccccc1C(=O)N1CCOCC1,5.9%,-0.9%,-0.4%,.
O=C(Nc1ccncc1)Nc1cccc(Cl)c1Cl,3.1%,-3.1%,6.2%,.
CCN(CC)C(CNS(=O)(=O)c1ccc(Cl)cc1)c1ccccc1 (centres undefined),5.0%,-5.9%,-8.8%,-7.1
CN1CCN(CCCNC(=O)CN2C(=O)COc3ccccc32)CC1,22.7%,-1.4%,-4.5%,.
COC(=O)Cc1csc(/N=C/c2c(O)n(-c3cccc(C(F)(F)F)c3)c(=O)c3ccccc23)n1,?,?,-3.5%,2.3
CC12CCC(C)(c3nc4ccccc4nc31)C2(C)C,48.2%,6.5%,-1.3%,1.8
Cc1ccccc1Nc1c([N+](=O)[O-])ccc2nonc12,16.0%,3.0%,-16.2%,.
CC(=O)c1sc(NC(=O)c2ccccc2)nc1-c1ccccc1,?,?,-38.2%,-7.1
NC(=O)COc1ccc(-n2cnnn2)cc1,1.7%,-0.9%,-1.3%,-6.0
CC(C)C(=O)Nc1nnc(CCc2nnc(NC(=O)C(C)C)s2)s1,-9.6%,-0.1%,-0.4%,-3.1
O=Cc1cn(CCOc2ccccc2)c2ccccc12,0.5%,0.0%,-23.2%,.
O=P(CCNCc1ccco1)(c1ccccc1)c1ccccc1,-16.5%,2.9%,-2.0%,6.1
COc1ccc(N2CCN(C(=O)c3cccc(NC(=O)c4ccco4)c3)CC2)cc1,-1.4%,-1.8%,-1.4%,.
Cc1ccc(-c2n[nH]c(=S)n2/N=C/c2c(C)[nH]n(-c3ccccc3)c2=O)cc1,-9.0%,-2.6%,-2.4%,-0.7
O=C(CSc1n[nH]c(-c2cccnc2)n1)Nc1ccccc1,0.7%,-1.5%,-5.3%,-3.4
CCCN(CCC)C(=O)Cn1c(=O)n(CCCCC(=O)NC2CCCC2)c(=O)c2ccccc21,4.4%,0.7%,-3.4%,-0.1
COc1ccc(CNCc2c(C(=O)N(C)C)nc3ccc(Cl)cn23)c(OC)c1,2.3%,0.5%,-3.5%,1.8
CCOc1ccc(Nc2ncnc(N)n2)cc1,-9.2%,1.7%,-38.6%,-2.2
CCOC(=O)c1c(-c2ccccc2)csc1/N=C/C1C(=O)CCCC1=O,?,?,19.9%,-4.5
O=C(NC12CC3CC(CC(C3)C1)C2)N1CCN(C(=O)c2ccco2)CC1,-1.8%,-1.0%,-61.0%,-7.5
Cc1ccc(NC(=O)c2sc(N)nc2-c2ccc([N+](=O)[O-])cc2)cc1C,16.6%,3.5%,7.2%,3.9
Clc1ccc(/C(Cc2nc3ccccc3[nH]2)=N\Nc2ccccc2)cc1,-5.7%,-0.4%,-45.9%,-2.8
COCCNC(=O)CN(c1ccccc1OC)S(C)(=O)=O,0.5%,-4.3%,0.4%,-1.0
O=C(Oc1ccc([N+](=O)[O-])cc1)c1cc(-c2ccccc2)nc2ccccc12,-5.4%,1.1%,-11.4%,-1.2
O=C(COC(=O)c1cccc(-n2cnnn2)c1)c1ccccc1,1.6%,-1.4%,-5.8%,.
O=C(NCC1COc2ccccc2O1)c1cccc(S(=O)(=O)N2CCCCC2)c1 (centres undefined),-3.6%,-5.0%,.,.
CCCC(C)NCC(=O)Nc1ccccc1-c1ccccc1 (centres undefined),-10.7%,-1.8%,6.6%,-3.5
COc1ccc(N2CCN(C(=O)c3cccc(Br)c3)CC2)c([N+](=O)[O-])c1,0.0%,1.0%,-9.0%,0.0
Cn1c2ccccc2n2c(=O)c(=O)n(CC(=O)c3ccc(F)cc3)nc12,?,2.2%,-5.5%,8.7
CC(C)C[C@H](NC(=O)c1[nH]cnc1C(=O)Nc1ccc(CNC(=O)OC(C)(C)C)cc1)C(=O)OC(C)(C)C,3.8%,2.8%,19.3%,-27.2
O=C1N(O)C2(C=CCCC2)/C(=N\O)C12CCCCC2 (centres undefined),3.8%,-2.5%,-1.9%,7.1
CCN(CC)C(=O)[C@H]1C[C@H](CC(=O)NCCc2ccccn2)C(=O)N2CCc3c([nH]c4cc(-c5ccco5)ccc34)[C@]12C,-23.5%,?,.,.
CC(=O)c1cccc(CN2CCN(C(C)C)C(CCO)C2)c1 (centres undefined),-1.0%,0.9%,-0.6%,2.7
CN(CC(=O)Nc1ccc(F)cc1)C(=O)C1Cc2ccccc2CN1S(C)(=O)=O (centres undefined),-8.4%,-0.3%,.,.
CCC(C)N1C(=O)CCC1C(=O)NCCc1ccc(Cl)cc1 (centres undefined),0.3%,0.2%,-1.2%,.
COc1ccccc1N1CCN(CC(C)N(C(=O)C2CCCCC2)c2ccccn2)CC1 (centres undefined),8.1%,-2.3%,3.3%,.
CCS(=O)(=O)c1ccc2oc(SCC(=O)NCCc3ccc(F)cc3)nc2c1,13.0%,-0.5%,2.8%,-18.9

# In a second layout: results already given.
canonical_smiles | Rango dissoc inh | Rango complex inh | miR-21 reporter | GLA inh pH 4.5
O=C(Oc1ccc([N+](=O)[O-])cc1)c1cc(-c2ccccc2)nc2ccccc12 | -5.4% | 1.1% | -11.4% | -1.2
COCCNC(=O)CN(c1ccccc1OC)S(C)(=O)=O | 0.5% | -4.3% | 0.4% | -1.0
CCCC(C)NCC(=O)Nc1ccccc1-c1ccccc1 (centres undefined) | -10.7% | -1.8% | 6.6% | -3.5
CCN(CC)C(=O)[C@H]1C[C@H](CC(=O)NCCc2ccccn2)C(=O)N2CCc3c([nH]c4cc(-c5ccco5)ccc34)[C@]12C | -23.5% | ? | . | .
COc1ccccc1N1CCN(CC(C)N(C(=O)C2CCCCC2)c2ccccn2)CC1 (centres undefined) | 8.1% | -2.3% | 3.3% | .
CC(C)C[C@H](NC(=O)c1[nH]cnc1C(=O)Nc1ccc(CNC(=O)OC(C)(C)C)cc1)C(=O)OC(C)(C)C | 3.8% | 2.8% | 19.3% | -27.2
Cn1c2ccccc2n2c(=O)c(=O)n(CC(=O)c3ccc(F)cc3)nc12 | ? | 2.2% | -5.5% | 8.7

# (more compounds)
SMILES,Rango dissoc inh,Rango complex inh,miR-21 reporter,GLA inh pH 4.5
COc1ccc(C2=C(C)CC(C)(C)NC2=O)cc1OC,-8.2%,1.0%,-0.7%,7.4
O=C(Nc1ccccc1)N1CCc2ccccc21,15.1%,-0.2%,-54.6%,-5.4
Cc1ccccc1N(CC(=O)NCCSC1CCCCC1)S(=O)(=O)c1ccccc1,-6.1%,-3.0%,12.4%,6.8
CSCCC1NC(=O)N(CC(=O)Nc2c(Cl)cc(Cl)cc2Cl)C1=O (centres undefined),-5.9%,1.0%,-11.3%,5.0
COc1ccc(NC(=O)COC(=O)CCCc2c[nH]c3ccccc23)cc1,0.1%,1.5%,1.5%,1.5
O=C(Cn1c(NCCO)nc2ccccc21)c1ccc(Cl)cc1Cl,16.3%,-0.9%,-1.6%,.
CCC1CCCCN1CC(=O)c1c(C)[nH]c2cc(C)ccc12 (centres undefined),20.3%,2.4%,-0.6%,.
COc1ccc(OC(C)c2nnc(N)s2)cc1 (centres undefined),1.2%,-0.2%,-4.4%,0.1
Cc1nnc(SCC(=O)c2cc(C)n(-c3c(C)n(C)n(-c4ccccc4)c3=O)c2C)s1,-8.4%,-0.1%,12.9%,2.0
N#CC1=C(SCC(=O)c2cc3ccccc3oc2=O)NC(=O)C(C#N)C12CCCC2 (centres undefined),?,?,-2.6%,-6.8
Cc1ccccc1OCc1n[nH]c(=S)n1-c1ccccc1,15.2%,0.3%,-8.1%,7.4
O=C(N/N=C/c1ccc([N+](=O)[O-])o1)c1ccc2c(c1)OCO2,?,3.1%,?,.
C=CCOC(=O)CN1C(=O)c2ccccc2C1=O,16.5%,-3.5%,-0.6%,6.2
Cc1ccc(-c2ccc(NC(=O)C3C4C=CC(C4)C3C(=O)O)cc2)o1 (centres undefined),0.0%,-0.3%,-47.1%,-2.6
O=C(NC1CCS(=O)(=O)C1)c1c(NC(=O)C2COc3ccccc3O2)sc2c1CCCC2 (centres undefined),-5.8%,3.3%,-11.4%,6.1
Cc1cc(NC(=O)OC(C)C)ccc1-c1ccc(NC(=O)OC(C)C)cc1C,1.5%,0.0%,-12.2%,-5.3
COCCn1c(C)cc(C(=O)COC(=O)c2ccc(NC(=O)CC#N)cc2)c1C,-24.3%,?,-51.7%,-0.3
Cc1cccc2cc(CN(Cc3ccc(F)cc3)C(=O)C(F)(F)F)c3nnnn3c12,-3.4%,-2.0%,-6.1%,-3.8
Fc1ccc(C(c2nnnn2C2CCCC2)N(Cc2ccco2)CC2CCCO2)cc1 (centres undefined),-0.4%,1.1%,7.6%,5.0
COc1cccc(CN(C(=O)c2cc3ccccc3oc2=O)C2CC2)c1,-6.5%,-1.0%,-38.0%,-4.2
COc1ccc(Cc2nn3c(Cn4nnc5ccccc54)nnc3s2)cc1,-3.4%,-0.4%,2.5%,-4.5
Cn1c(N)nc2nc[nH]c2c1=S,8.4%,0.8%,.,.
Cc1ccc(N2CC(C(=O)N3CCC(C(=O)Nc4ccc(Br)cc4)CC3)CC2=O)cc1 (centres undefined),1.1%,-4.9%,-1.9%,.
CCC(NC(=O)/C(=C\c1ccc2c(c1)OCO2)NC(C)=O)C(=O)O (centres undefined),3.7%,-3.2%,-7.8%,-0.2
Cc1ccc(C)c(S(=O)(=O)Nc2ccccc2C(=O)Nc2ccc(S(=O)(=O)Nc3ncccn3)cc2)c1,21.0%,9.9%,3.3%,0.5
COc1cccc(NC(=O)CCS(=O)(=O)c2cccs2)c1,11.9%,-4.9%,-17.0%,-5.6
COc1cc(C)ccc1S(=O)(=O)N1CCN(C23CC4CC(CC(C4)C2)C3)CC1,-6.8%,-0.2%,5.5%,-1.2
Cc1cccc(C(=O)N2CCN(CCNC(=O)C(=O)Nc3ccc(F)cc3)CC2)c1,1.1%,1.7%,-12.2%,.
CCN(CC)C(=O)CC(c1ccc(N(C)C)cc1)c1c(O)cc(OC)cc1OC (centres undefined),8.7%,0.6%,0.7%,4.7
CC12CC(NC(=O)N1c1cccc(C(=O)Nc3ncn[nH]3)c1)c1ccccc1O2 (centres undefined),7.9%,-1.6%,-2.5%,7.4
CC(NC(=O)c1ccccc1)c1nnc(SCC(=O)Nc2nnc(C3CC3)s2)n1C (centres undefined),-6.0%,2.7%,.,.
CCCN(C(=O)CCl)C1=CCCCC1,5.4%,-5.9%,11.0%,-9.0
O=C(CCn1cnc2ccccc2c1=O)Nc1ccc(Cl)c(Cl)c1,-2.8%,-0.4%,-4.2%,6.8
CC(C)(C)NC(=O)C(c1ccc(F)cc1)N(Cc1ccco1)C(=O)c1csnn1 (centres undefined),10.6%,-1.9%,1.2%,2.0
COc1cccc(CN(C)CC(=O)Nc2cc3oc4ccccc4c3cc2OC)c1,-3.1%,0.5%,-8.9%,4.3
O=C(COc1ccc2c3c(c(=O)oc2c1)CCC3)NCC(O)c1ccccc1 (centres undefined),2.8%,3.0%,-0.7%,.
CC(C)Cn1c(N)c(C(=O)COC(=O)c2ccccc2Cl)c(=O)n(C)c1=O,-1.8%,-1.6%,8.5%,-9.1
